Assay outcomes deposited in PubChem by National Center for Advancing Translational Sciences (NCATS).
N370S GC: inhibitors or activators of N370S glucocerebrosidase for Gaucher disease. P04062. N370S GC spleen homogenate, 4MU-glucoside fluorescence. Potency, µM (titrated, usually from 59.4 µM), without a hit: top-dose activity change, negative = inhibition, most hits filed as inhibitors. 330,000 compounds, 0.092% hits;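 also: 0% = full enzyme activity and -100% = no enzyme basal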
FEN1 inh: inhibitors of human flap endonuclease 1; 390,000 compounds, 0.35% hits; P39748; Potency, µM (top dose mostly 114 µM), inactives show at the highest dose activity change, negative = inhibition, hits mostly inhibitors; Recombinant FEN1 flap cleavage, fluorescence, 15 min; AID 588795; also: nearly all actives have a fitted effect of over 65% in size
Target sequence (P39748 whole entry, looked up): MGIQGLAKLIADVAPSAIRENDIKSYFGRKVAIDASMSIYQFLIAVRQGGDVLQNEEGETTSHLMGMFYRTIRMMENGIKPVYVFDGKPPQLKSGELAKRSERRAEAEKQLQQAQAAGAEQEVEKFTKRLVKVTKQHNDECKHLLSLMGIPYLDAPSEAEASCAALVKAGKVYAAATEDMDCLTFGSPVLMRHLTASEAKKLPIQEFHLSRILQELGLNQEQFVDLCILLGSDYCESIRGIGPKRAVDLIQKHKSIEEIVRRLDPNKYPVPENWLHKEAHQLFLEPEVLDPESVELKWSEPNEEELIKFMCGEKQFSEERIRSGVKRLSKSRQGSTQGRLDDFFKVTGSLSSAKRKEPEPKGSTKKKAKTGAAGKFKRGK
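Potency values derive from four-parameter Hill fits of normalized qHTS data. The reaction used 10 nM FEN1 preincubated 15 min at room temperature with compound, then 50 nM DNA substrate, read at 0 and 15 min.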
* = called active by the depositor; u = inconclusive; x = not tested or not shown; & = joins results of further samples; [ ] = another dose, or the depositor's remark. Calls follow the shape of the dose curve; as a rule, active = well fitted curve in the direction sought with a large enough effect; inconclusive = small, poorly fitted or top-dose-only effect, or another doubt; inactive = no such curve, though single readings can be large; an effect the other way counts as inactive or inconclusive. Unless noted, % is scaled to controls: 0 for no effect and ±100 for the full control effect; potency is read from the fitted curve at half-maximal effect. These rows are one share of the data; most or all hits stand in other tables.

compound	N370S GC	FEN1 inh
COC(=O)Nc1ccc2c(c1)N(C(=O)CCN1CCN3CCCC3C1)c1ccccc1CC2 (stereo not given)	-1%&12%	5%&1%
O=c1oc2c(CN3CCOCC3)c(O)ccc2c2ccccc12	2%[12.8 µM]	-3%
CCCCNC(=S)NNC(=O)c1c(C)nc2ccccn12	22%	2%
CCOC(=O)Cc1nnc(NC(=O)Nc2ccccc2)s1	5%	7%
Cc1nonc1C1CCCN1C(=O)c1cc(COc2ccc(F)cc2F)on1 (stereo not given)	-1%	1%
CCCNC(=O)Nc1cccc(NC(C)=O)c1	2%	-2%
Cc1ccc2oc3c(c(=O)c2c1)C(c1ccccc1F)N(c1ccccn1)C3=O (stereo not given)	x	0%
O=C(CN1CCN(c2ncc(C(F)(F)F)cc2Cl)CC1)NCCNc1ncc(C(F)(F)F)cc1Cl	-3%	-6%
COc1ccc(Cl)cc1-c1nc(SCC(=O)N(C)CCC#N)n[nH]1	6%	-4%
COc1ccccc1/C=C(/CC(=O)NCc1ccc(F)cc1)c1nc2ccccc2s1	5%	0%
C#CCOCCOCCOCCNc1nc(N2CCN(C(=O)[C@H]([C@@H](C)O)n3cc(CCCCN)nn3)CC2)nc(N2CCN(C(=O)[C@H](C)n3cc(CCCN=C(N)N)nn3)CC2)n1	1%	0%
CC(=O)CSc1ncnc2c1cnn2-c1ccccc1	8%	-1%
Fc1ccc(-n2cc(CNCCc3ccncc3)c(-c3ccccc3Cl)n2)cc1	-9%	9%
Cc1nc2ccccn2c1C(=O)/C=C/c1cccc([N+](=O)[O-])c1	6%	-10%
Cc1ccc(S(=O)(=O)N2[C@@H](c3ccc(Br)cc3)C(C(=O)O)=CC[C@H]2c2ccc3c(c2)OCO3)cc1	x	-15%
Cc1ccnc(NC(=O)CNC(=O)c2ccccc2Br)c1	-12%	-11%
O=C(NC1CCCCCC1)C1c2ccccc2C(=O)N1Cc1cccnc1 (stereo not given)	6%	8%
O=C(NNC(=O)C1CC1)c1cccc([N+](=O)[O-])c1	-11%	1%
CN1CCN(CCC=C2c3ccccc3Sc3ccc(S(=O)(=O)N(C)C)cc32)CC1	-28%&-21%&-7%	-2%
COc1ccc(NC(=O)C(c2ccccn2)N(C(C)=O)c2ccc(C)cc2)cc1 (stereo not given)	1%	-1%
O=C(CC1S/C(=N/N=C2CCCCCC2)NC1=O)Nc1ccccc1C(F)(F)F (stereo not given)	2%	3%
CC1=C(C(=O)Nc2ccc(C)cc2C)C(C(C)C)n2nc(SCc3ccccc3Cl)nc2N1 (stereo not given)	x	5%
Cc1ccccc1-c1nc(CN2CCC(C(=O)NC(C)C)CC2)c(C)o1	x	-2%
CN(C)CCc1c[nH]c2ccc(Cn3cncn3)cc12	9%	x
Cc1cccc(CCNS(=O)(=O)c2ccc3c(c2)NC(=O)C(C)S3)c1 (stereo not given)	-7%	-19%
CN1CCc2nc(SCCOc3ccccc3)c(C#N)cc2C1	-8%	-3%
COC(=O)[C@@]1(Cc2ccc(OC)cc2)[C@H]2c3cc(C(=O)N4CCCC4)n(CCN4CCOCC4)c3C[C@H]2CN1C(=O)c1ccccc1	-8%	x
O=C(C1CCC1)N1CCN(Cc2ccccc2)CC1	3%[2.35 µM]	3%
CCCCN1C(=O)N(c2nnc(C(C)(C)C)s2)C(O)C1c1ccc(C)cc1 (stereo not given)	-2%	u
Cc1ccc(C(=O)n2nc(C)c(S(=O)(=O)N3CCCCCC3)c2C)cc1C	x	-14%
CN1CCN(C(=O)Cn2c(-c3cccs3)cc3ccccc32)CC1	x	1%
CC(Sc1ccccc1)C(=O)NNC(=O)c1csc(N2CCOCC2)n1 (stereo not given)	3%	5%
CCc1ccc2c(c1)c1nc(C)sc1n2CC	3%	15%
O=C(OCC#CCSc1nc2ccccc2o1)c1ccco1	6%	-24%
CCOc1ccc(CCNC(=O)CCCc2nnc3n(CC)c(=O)c4sccc4n23)cc1	x	16%
FC(F)(F)Oc1ccc(NC(=S)NCc2ccccc2)cc1	-4%	-26%
CCc1c(C)nc(N)n2c(SCC(=O)Nc3ccccc3)nnc12	-4%	-1%
COCCn1c(SCC(=O)Nc2ccc(Br)cc2)nc2c([nH]c3ccccc32)c1=O	x	0%
COc1ccc(NC(=O)Nc2ccccc2C(=O)N2CCCC2)cc1	5%	6%
Cn1c(=O)n(C)c2cc(NS(=O)(=O)c3ccc(Br)cc3)c(NCc3ccccc3)cc21	x	7%
COc1ccc(CC(=O)OCCN(C)C)cc1	-5%	1%
COc1cccc2cc(C(=O)NCc3ccc(F)cc3)c(=N)oc12	-2%	12%
Cn1c(=O)c2c(nc(NCc3ccccc3)n2Cc2ccccc2Cl)n(C)c1=O	x	-9%
C[N+](C)(CCCCCC[N+](C)(C)CCCN1C(=O)c2cccc3cccc(c23)C1=O)CCCN1C(=O)c2cccc3cccc(c23)C1=O	8%&-4%	2.5µM*
CCOc1cc(C(=O)Nc2cc3c(cc2N2CCOCC2)n(C)c(=O)n3C)cc(OCC)c1OCC	-8%	-8%&24%
O=C(COC(=O)C1CC(=O)N(c2ccccc2)C1)c1ccccc1 (stereo not given)	-6%	-12%
Cc1ccc(C(=O)N/C(=C\c2ccccc2)C(=O)NCCCn2ccnc2)cc1	-8%	-1%
COCCN1CCN(C(=O)c2cc(COc3cncc(Cl)c3)on2)CC1	1%	-2%
O=C(O)CCCc1ccccc1	9%&-12%	9%
O=C(CNC(=O)C1CCCCC1)OCC(=O)c1ccc(Br)cc1	3%	-5%&-5%
Cc1ccc(NC(=O)CCNS(=O)(=O)c2ccccc2)cc1S(=O)(=O)N1CCOCC1	-3%	6%
CC(=O)Nc1ccccc1-c1nc2ccccc2nc1OCC(=O)c1ccc2ccccc2c1	-21%	-1%
O=C(COc1ccccc1Cl)Nc1cc(Cl)ccc1O	u	-8%
COc1cscc1C(=O)O	-3%	6%
COc1ccc(N2C(=O)NC(NC(=O)c3cccnc3)(C(F)(F)F)C2=O)cc1 (stereo not given)	2%	-2%
CC(C)NC(=O)c1ccc(CSc2nc3ccncc3n2Cc2cccc(F)c2)cc1	x	-2%
CC[N+](CC)(CCCCS(=O)(=O)[O-])CCNP1(=O)C=C(c2ccccc2)OC(c2ccccc2)=C1	-19%	12%
O=C(NCC(c1ccco1)N1CCCC1)c1ccc(S(=O)(=O)Nc2ccc(F)cc2)cc1 (stereo not given)	x	7%
Cc1cccn2c3c(c(=O)nc12)C(c1ccc(F)cc1)CC(=O)N3 (stereo not given)	x	10%
COc1ccc(CNC(=O)c2c(O)c3cccc4c3n(c2=O)CCC4)cc1	-10%	-2%

New compounds follow:
compound	N370S GC	FEN1 inh
Cc1cc[n+](C(C)C(=O)c2ccc(Cl)cc2)cc1 (stereo not given)	1%	-2%
COC(=O)c1ccccc1NC(=O)NCC1CCCO1 (stereo not given)	13%	-15%
COc1cc(C(=O)Nc2cccc(-c3nc4cc(C)ccc4o3)c2C)cc(OC)c1OC	-2%	-12%
Cc1occc1C(=O)Nc1nnc(C2CCCCC2)s1	22%	2%
O=C(O)Cc1ccc(NC(=S)NCc2ccco2)cc1	16%	-4%
Cc1cccc(N2CCN(C(=O)c3nn(C)c4c3CSc3ccccc3-4)CC2C)c1 (stereo not given)	x	20%
COc1ccc(C(=O)NCC(=O)N2CCN(c3ccc(F)cc3)CC2)cc1	-17%	13%
N#Cc1cc2c(=O)n3ccccc3nc2n(-c2nnc(SCc3ccccc3)s2)c1=O	x	12%
COc1ccc(Cl)cc1C(=O)NNC(=S)NC(=O)c1cc(-c2ccc(Cl)cc2)nc2ccccc12	7%	0%
Cc1cc(Oc2cc(N)cc([N+](=O)[O-])c2)ccc1Cl	7%	8%
O=C(CSc1nnc(NCc2ccccc2)s1)N1CCOCC1	11%	-2%
COc1ccc(C(=O)NNC(=O)C23CC4CC(CC(C4)C2)C3)cc1OC	x	-1%
CC(C)(C)NC(=O)NC(=O)COC(=O)c1cc[n+]([O-])cc1	0%	-3%
CCOc1ccccc1NC(=S)NC(=O)C1CCCCC1	u	-1%
CCOC(=O)Cc1csc(NC(=O)CCc2ccccc2)n1	-14%	-4%
CCCNC(=O)C1CCC(CNS(=O)(=O)c2cccc3nsnc23)CC1 (stereo not given)	1%	-10%
COc1ccccc1C(=O)Nc1ccc2c(c1)nc(CCNC(=O)c1ccccc1)n2C	-3%	-8%
CC1CCN(C(=O)CCN2C(=O)/C(=C/c3cccs3)SC2=S)CC1	2%	1%
Cc1ccc(NC(=O)CS(=O)CC(=O)Nc2ccc3c(c2)OCO3)cc1Cl (stereo not given)	-7%	-13%
C=CCn1c(C)cc(-c2csc(N)n2)c1C	-17%	u
Cc1cc(-c2nc3ccccc3o2)c2ccccc2n1	10%	-7%
O=C(NCc1ccccc1)C(c1ccc(O)cc1)N(C(=O)Cn1nnc(-c2cccs2)n1)c1ccc2c(c1)OCCO2 (stereo not given)	u	-11%
CCOC(=O)c1ccc[n+](C(C)C(=O)c2ccc(-c3ccccc3)cc2)c1 (stereo not given)	9%	-6%
CCOc1ccc(N2CC(c3nc4ccccc4n3CC(C)C)CC2=O)cc1 (stereo not given)	x	14%
COc1cccc(N/C(SC)=C(/C#N)C(=O)NCc2cccs2)c1	10%	-12%
O=C(CSc1nc(-c2ccco2)cc(C(F)(F)F)n1)N1CCCc2ccccc21	3%	-13%
CC1CCN(C(=O)c2[nH]cnc2C(=O)N[C@@H](C)C(=O)OCc2ccccc2)CC1	-3%	9%
CCOc1ccc(-n2c(-c3ccccc3)c(C)n3c4c(=O)n(C)c(=O)n(C)c4nc23)cc1	x	-5%
N#C/C(=C\c1ccccc1)c1ccccn1	-10%	0%
COc1cccc(-n2c(SCC(=O)NCC3CCCO3)nc3c(c2=O)SCC3)c1 (stereo not given)	-2%	-2%
O=C(COc1cccc2ccccc12)Nc1cc(S(=O)(=O)N2CCOCC2)ccc1N1CCOCC1	-2%	x
Cc1cc(C)n(-c2ncc3c(n2)N(C)CCOC3=O)n1	-10%	5%
C(=C\c1ccco1)/c1ccc2ccccc2n1	-5%	7%
COc1cc(CCC(=O)NCc2ccc3c(c2)CCN3C(=O)c2ccc(F)cc2)cc(OC)c1OC	x	-2%
CCN(CC)S(=O)(=O)c1ccc(Cl)c(C(=O)N2CCc3ccccc32)c1	-20%	-3%
CC(=O)OCC1OC(Nc2cccc(C)c2)C(OC(C)=O)C(OC(C)=O)C1OC(C)=O (stereo not given)	3%	9%
c1ccc(-n2nc3ccccc3n2)cc1	1%	-7%
COc1ccc(C(C(=O)NCc2ccccc2)N(C(=O)Cn2nnc3ccccc32)c2ccc(OC)cc2)cc1 (stereo not given)	x	6%
CCCCn1c(N)c(N(CC)C(=O)c2c(CC)noc2C)c(=O)[nH]c1=O	-9%	1%
COc1cccc(C(=O)NCCSc2ccc(F)cc2)c1	8%	1%
O=S(=O)(c1ccc(C(F)(F)F)cc1)N1CCCN(c2ccc(C(F)(F)F)cn2)CC1	-11%	-18%
C/C(Cn1nnc2ccccc21)=N/OC(=O)c1c(F)cccc1F	1%	-15%
O=C(Nc1ccccc1N1CCCCC1)c1ccco1	5%	0%
CCNc1nc(NCc2ccc(F)cc2)c2cnn(C)c2n1	x	-16%
CC(Oc1ccc(C(=O)c2ccccc2)cc1)C(=O)Nc1ccc(S(N)(=O)=O)cc1 (stereo not given)	1%	-14%
c1ccc(-c2nc(N3CCOCC3)c3ccccc3n2)nc1	3%	-2%
COc1ccc(NC(=O)C2=NN(C3CCS(=O)(=O)C3)C(=O)CC2)cn1 (stereo not given)	18%	-5%
O=C(COC(=O)Cn1nnc2ccccc21)NC1CCCC1	-18%	2%
N#C/C(=C\c1cn(Cc2ccc(C#N)cc2)c2ccccc12)C(=O)NCc1cccs1	1%	0%
Nc1nc2c(cnn2CCc2ccccc2)c2nc(-c3ccco3)nn12	-3%	x
COc1c(N2CCN[C@H](C)C2)c(F)cc2c(=O)c(C(=O)O)cn(C3CC3)c12	-12%	-27%
